Beta apoptosis – beta cell apoptosis inhibition; INS-1E cytokine-induced death, ATP luminescence, 48 h; percent of positive-control rescue, neutral wells zero; actives 0.8% (n = 300,000); protection from apoptosis, % (concentration not given with the values);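 active means all replicates at 75% or more, or half of them and the mean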;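 further: 0% = cytokine-treated negative control wells and 100% = positive control rescue; higher means more ATP so stronger rescue from cytokine killing; wells of about 40 µL received 100 nL stock; the first replicate is given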
FGF22 binding – shifts melting point of recombinant human FGF22; actives 1.5% (n = 340,000); AID 651658; calls only at 9.99 µM; recombinant FGF22 thermal shift, SYPRO orange fluorescence; percent of sucrose octasulfate shift, DMSO zero;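 active means melting point raised past a set limit in the mean and every replicate; three in four hits are not shown here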
Target sequence (Q9HCT0 whole entry, looked up): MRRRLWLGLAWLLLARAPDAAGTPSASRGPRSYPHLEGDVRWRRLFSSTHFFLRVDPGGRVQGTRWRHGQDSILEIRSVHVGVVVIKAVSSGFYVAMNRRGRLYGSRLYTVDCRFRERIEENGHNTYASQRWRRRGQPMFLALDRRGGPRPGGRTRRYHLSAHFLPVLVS
Bfl-1 A1 inh – inhibitors of the anti-apoptotic protein A1, read as caspase activation; caspase activation, % (test concentration not listed); AID 2462; actives 0.066% (n = 330,000); MEF A1-2A-BIM cells, Caspase-Glo 3/7 luminescence, 3 h; percent of clofoctol response, vehicle zero;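 active means over half of replicate activation scores above 10%, or exactly half above 10 with the replicate mean above 10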;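 further: wells of about 30 µL received 50 nL stock; many hits fall short of the cut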
UCH37 DUB inh – blocks the human deubiquitinase UCH37; inhibition, % (concentration not given with the values); actives 0.33% (n = 330,000); purified proteasome/UCH37, Ub-AMC cleavage fluorescence; AID 588478;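 active means mean of two replicates above 20%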;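 further: 0% = compound-free wells with enzyme and 100% = wells lacking proteasome; stock transfer was 100 nL into about 20 µL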
Target sequence (Q9Y5K5 whole entry, looked up): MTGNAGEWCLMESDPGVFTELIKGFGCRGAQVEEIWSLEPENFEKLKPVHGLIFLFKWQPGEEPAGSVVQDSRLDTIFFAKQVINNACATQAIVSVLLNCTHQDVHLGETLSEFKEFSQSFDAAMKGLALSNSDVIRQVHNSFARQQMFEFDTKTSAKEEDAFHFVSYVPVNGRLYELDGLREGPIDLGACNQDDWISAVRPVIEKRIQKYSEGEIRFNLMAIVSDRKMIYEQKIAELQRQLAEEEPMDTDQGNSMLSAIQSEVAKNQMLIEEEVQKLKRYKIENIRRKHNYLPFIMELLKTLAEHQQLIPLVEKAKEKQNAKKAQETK
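Signal – fluorescence, ex 355 nm, em 460 nm · System – Proteasome-bound UCH37 · Input – 0.15 nM proteasome as dispensed · Timing – 30 min preincubation with enzyme, 25 min cleavage at room temperature · Read-out basis – percent inhibition of cleavage signal versus uninhibited and no-proteasome wells · Medium – Tris-HCl pH 7.4 with ATP-MgCl2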
Ecoli rRNA inh – inhibits bacterial ribosomal RNA function over humanized ribosomes | E. coli WT GFP vs humanized-ribosome RFP mutants, fluorescence, 24 h; active compounds read low; DMSO median 0, no signal -100 | GFP signal change (wild-type ribosome), % (test concentration not listed) | AID 720706 | actives 1.6% (n = 350,000);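 active means significant combined selectivity score with lowered wild-type GFP, culture density cut under 30%, mutant RFP and density less affected; inactive means any of these conditions unmet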; further: one replicate is shown; some compounds called inactive have numbers as strong as hits
T cruzi repl – T. cruzi replication inhibition | inhibition, % (concentration not given with the values) | T. cruzi beta-gal in NIH3T3, luminescence, 90 h | actives 1.4% (n = 300,000);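 active means mean inhibition across valid replicates above about 55%, limit read from the data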;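 further: signal also drops with host cell toxicity which is not excluded here; 0% = plate median of DMSO wells and 100% = zero luminescence signal; higher percent means less beta-gal luminescence so fewer parasites; stock transfer was 50 nL into about 50 µL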
E coli growth – inhibitors of Escherichia coli growth | OD600, 23 h; active compounds read low | OD600 absorbance (no concentration beside the values) | actives 0.21% (n = 330,000);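 active means OD600 absorbance below the run mean of sample wells minus 3.6 SD, in any replicate, cut at about 0.56 in these data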;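 further: stock transfer was 300 nL into about 60 µL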
MLL AF4-AF9 inh – inhibitors of human MLL-AF4/AF9 interaction; P42568; AlphaScreen, biotin-AF4 peptide binding to FLAG-AF9; inhibition, % at 10 µM; actives 0.47% (n = 350,000); AID 651704;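 active means every replicate reaching a set inhibition limit, whatever the replicate mean, cut at about 25% in these data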;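 further: 0% = plate neutral control median and 100% = total signal loss; the record names both 10 and 1 µM as test concentration; the first replicate is given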
Target sequence (P42568 whole entry, looked up): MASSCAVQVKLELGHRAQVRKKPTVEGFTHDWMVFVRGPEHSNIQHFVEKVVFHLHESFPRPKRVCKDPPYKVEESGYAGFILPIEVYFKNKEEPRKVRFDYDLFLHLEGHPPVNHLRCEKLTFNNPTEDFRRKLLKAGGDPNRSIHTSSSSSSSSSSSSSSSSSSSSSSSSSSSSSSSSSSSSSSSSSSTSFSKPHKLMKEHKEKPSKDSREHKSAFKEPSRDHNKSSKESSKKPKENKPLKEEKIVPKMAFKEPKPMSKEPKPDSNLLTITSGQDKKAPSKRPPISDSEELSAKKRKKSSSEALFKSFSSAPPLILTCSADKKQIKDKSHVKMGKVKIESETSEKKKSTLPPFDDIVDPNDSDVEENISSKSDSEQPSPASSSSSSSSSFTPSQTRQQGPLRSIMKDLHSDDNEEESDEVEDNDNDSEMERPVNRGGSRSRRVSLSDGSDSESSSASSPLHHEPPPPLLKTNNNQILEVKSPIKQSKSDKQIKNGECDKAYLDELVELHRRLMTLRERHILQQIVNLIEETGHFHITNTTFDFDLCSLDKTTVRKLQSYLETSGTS
Ecoli rRNA inh OD600 – recorded beside Ecoli rRNA inh, whose call it bears; OD600 change, %; measured here: OD600 growth;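 optical density of the mix in the first replicate; 0 = DMSO median and -100 = no signal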
Ecoli rRNA inh RFP – also measured in Ecoli rRNA inh; calls as there; RFP signal change, %; measured here: RFP humanized mutant strains;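 first replicate; 0 = DMSO median and -100 = no signal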
* marks the source's active call; other numbers are inactive results; i = inactive; nt = no result given; & = joins results of further samples. An excerpt (hit frequency here may not be typical).

Below each compound – Beta apoptosis	Ecoli rRNA inh	FGF22 binding	Ecoli rRNA inh OD600	Ecoli rRNA inh RFP	MLL AF4-AF9 inh	T cruzi repl	Bfl-1 A1 inh	UCH37 DUB inh	E coli growth
1) Cc1sc(NC(=O)c2ccco2)c(C(c2ccc(F)cc2)N2CCN(C)CC2)c1C (centres undefined)
    -5.2	nt	nt	nt	nt	nt	8.4	-1.3	-44.8	0.709
2) COc1cccc(NC(=O)C(Sc2nnc3ccccn23)c2ccccc2)c1 (centres undefined)
    -1.8	nt	nt	nt	nt	nt	-21.2	-0.3	1.0	0.63
3) Cc1ccc(S(=O)(=O)Oc2ccc(C3C4=C(CCCC4=O)N(CCC(=O)O)C4=C3C(=O)CCC4)cc2Cl)cc1
    -7.4	nt	nt	nt	nt	nt	5.7	0.8	i	0.692
4) Cc1cccc(/C=N/NC(=O)c2cc(C)nc3ccccc23)n1
    -3.2	13.9	i	5.4	-3.1	4.1	-8.0	0.0	nt	nt
5) O=C(O)CCCn1c(=O)[nH]c2ccccc2c1=O
    -2.5	nt	nt	nt	nt	nt	-14.0	0.2	2.6	0.725
6) CC(C)Cc1nnc(NC(=O)C2CC(=O)N(Cc3ccccc3)C2)s1 (centres undefined)
    nt	8.1	i	7.4	-0.8	-7.9	-6.2	-0.5	1.9	0.702
7) O=C1C(c2ccnc3ccccc23)=C(O)c2ccccc21
    6.7	nt	nt	nt	nt	nt	39.5	1.1	5.9	0.725
8) CCc1ccc(NC(=O)c2ccc(NC(=O)C3CCCO3)cc2)cc1 (centres undefined)
    4.3	nt	nt	nt	nt	nt	-7.2	-0.2	4.7	0.676
9) C#CCOCCOCCOCCNc1nc(N2CCN(C(=O)[C@H](Cc3ccc(O)cc3)n3cc([C@@H](N)C(C)CC)nn3)CC2)nc(N2CCN(C(=O)[C@H](Cc3cc4ccccc4[nH]3)n3cc([C@@H](N)CC(C)C)nn3)CC2)n1 (some centres undefined)
    2.9	-2.1	i	-5.8	15.8	11.5	-16.7	-0.3	1.1	nt
10) Cc1ccc(C(=O)NCc2cccnc2)cc1S(=O)(=O)N1CCCCCC1
    -7.8	-2.6	i	-16.9	1.1	4.0	1.5	-0.3	0.0	0.69

The list goes on.
Below each compound – Beta apoptosis	Ecoli rRNA inh	FGF22 binding	Ecoli rRNA inh OD600	Ecoli rRNA inh RFP	MLL AF4-AF9 inh	T cruzi repl	Bfl-1 A1 inh	UCH37 DUB inh	E coli growth
11) CC(=O)NS(=O)(=O)c1ccc(NC(=S)NC(=O)COc2ccccc2C)cc1
    -1.3	nt	nt	nt	nt	nt	0.9	1.1	4.2	0.672
12) Cc1nc(SCC(=O)NC2CCCCC2C)c(C#N)c(C)c1C (centres undefined)
    4.6	2.3	i	2.8	0.1	0.1	nt	0.4	0.6	0.739
13) O=C(CSc1nnc(Cc2cccs2)n1-c1ccc(Cl)cc1)NCc1ccc2c(c1)OCO2
    -1.0	nt	nt	nt	nt	nt	15.7	0.1	1.5	0.719
14) COc1ccc(C(=O)N2CCn3c(C)ccc3C2C)cc1 (centres undefined)
    -0.6	15.6	i	2.7	0.6	1.8	-5.6	0.1	2.9	0.718
15) COc1ccc(CNC(=O)c2ccc(Cn3nc(C)cc3C)o2)cc1
    -4.2	-0.5	i	3.8	0.5	-2.0	-10.0	0.9	0.3	0.703
16) Cc1c(Cc2ccccc2)c(=O)oc2cc(OC(=O)c3ccccc3)ccc12
    -5.5	nt	nt	nt	nt	nt	-14.9	-0.3	-5.3	0.745
17) COc1ccc(C(=O)NC2(C(F)(F)F)NC(=O)N(CCCc3ccccc3)C2=O)cc1OC (centres undefined)
    7.5	-34.9	i	-50.0	-6.1	-0.2	-4.9	1.3	3.6	0.653
18) COc1ccc(OC)c(C2=NS(=O)(=O)N(C)C(C(=O)Nc3ccc(F)cc3F)=C2)c1
    6.0	-3.1	i	-16.4	-1.5	4.5	9.0	-0.1	1.5	0.678
19) CCN(CC)C(=O)CSc1nnc([C@H](CCSC)NC(=O)OC(C)(C)C)o1
    -5.8	nt	nt	nt	nt	nt	nt	-0.4	5.5	0.758
20) Cn1c(SCC(=O)C(C)(C)C)nnc1-c1ccc(F)cc1
    -1.7	11.3	nt	7.6	1.2	-0.6	-11.5	0.2	3.9	0.7

Other results follow:
Below each compound – Beta apoptosis	Ecoli rRNA inh	FGF22 binding	Ecoli rRNA inh OD600	Ecoli rRNA inh RFP	MLL AF4-AF9 inh	T cruzi repl	Bfl-1 A1 inh	UCH37 DUB inh	E coli growth
21) Cc1ccc(NC(=O)C2Cc3ccccc3CN2C(=O)c2ccco2)cc1S(=O)(=O)N(C)C (centres undefined)
    -4.6	0.7	i	4.4	-2.9	0.9	-1.2	-0.1	4.6	0.668
22) CC(NC(=O)C(=O)NCCN1CCN(C(=O)c2ccc([N+](=O)[O-])cc2)CC1)c1ccccc1 (centres undefined)
    -0.8	-4.2	i	6.1	-2.2	1.2	-7.7	-0.6	3.1	0.668
23) CC(C)c1nnc(NC(=O)c2cccc(-n3cnnn3)c2)s1
    -0.1	nt	nt	nt	nt	nt	1.5	-0.9	0.0	0.685
24) O=C(CN1CCCC1)NCC1(c2ccccc2)CCOCC1
    -0.6	nt	nt	nt	nt	nt	2.8	1.1	0.1	0.7
25) Cc1ccc(S(=O)(=O)N2CCC(C(=O)OCC(=O)N(C)Cc3ccccc3)CC2)cc1C
    -2.8	-13.1	i	-17.6	2.2	0.6	-13.6	0.0	0.5	0.61
26) COc1ccc(-c2cc3nc(C)n(N)c(=O)c3s2)cc1
    53.4	10.8	nt	25.7	4.7	-1.8	-4.3	-8.9	-243.6	0.663
27) Cc1cc(C)cc(-n2ccnc2SCC(=O)c2c(N)n(C3CC3)c(=O)[nH]c2=O)c1
    2.9	8.6	i	5.5	-1.1	0.9	nt	-0.2	0.3	0.712
28) Cc1nn(CC(=O)NCCc2cccs2)c(=O)c2cc3ccccc3n12
    1.7	5.3	i	8.3	-3.2	-1.8	20.5	-0.5	-1.8	0.712
29) CC(C)(C)N1[C@@H](CC(=O)O)c2cc(C(F)(F)F)ccc2S1(=O)=O
    -6.9	3.3	i	10.3	18.4	-0.6	-9.2	-1.4	0.0	nt
30) Cc1ccc(/C=C2/NC(=O)N(Cc3ccc(Br)cc3)C2=O)o1
    0.8	nt	nt	nt	nt	nt	7.4	0.0	6.1	0.697

(listing goes on)
Below each compound – Beta apoptosis	Ecoli rRNA inh	FGF22 binding	Ecoli rRNA inh OD600	Ecoli rRNA inh RFP	MLL AF4-AF9 inh	T cruzi repl	Bfl-1 A1 inh	UCH37 DUB inh	E coli growth
31) COCCN1C(=O)/C(=C/c2ccc(Oc3ccc([N+](=O)[O-])cn3)c(OC)c2)SC1=Nc1ccccc1
    5.8	nt	nt	nt	nt	nt	2.2	1.1	6.5	0.76
32) CCO[C@@H]1OC(C(=O)N2CCN(Cc3ccc4c(c3)OCO4)CC2)=C[C@H](C2CCCCC2)[C@H]1CCCO
    -3.7	-37.6	i	-66.7	-16.6	12.1&1.5	71.7*	1.1	-0.5	nt
33) CCCn1cnc2scc(-c3ccc(OC)cc3)c2c1=O
    -1.7	-10.4	i	-18.5	-2.2	-2.4	3.7	-0.4	-0.3	0.655
34) C=CCC[C@@H](Cc1ccc(F)cc1)C(=O)OC[C@@H](NC(=O)[C@H](CC=C)CC(=O)N(CCO)Cc1ccccc1)c1ccccc1
    -5.7	4.8	i	2.6	2.0	-3.3	nt	1.6	3.1	nt
35) CCOC(=O)N1CCN(CC(=O)c2ccc(O)cc2O)CC1
    4.6	7.6	i	6.8	-1.5	-15.2	-24.7	1.1	1.6	0.7
36) CN1CCN(CC#CCC(O)(c2ccccc2)c2ccccc2)CC1
    0.2	-4.1	i	-16.5	-2.0	3.2	11.8	0.2	4.9	0.653
37) NNC(=O)c1ccc(COc2cccc3ccccc23)cc1
    nt	nt	i	nt	nt	0.2	-9.5	0.4	-0.3	0.704
38) CC1=CC(C)(C)N=C(Nc2nc(C)c3cc(C)cc(C)c3n2)N1
    -9.3	-37.8	nt	-60.6	35.8	12.4	52.8	1.0	0.9	0.607
39) CCCC1C(=O)N(Cc2ccccc2)C(=O)CC1C (centres undefined)
    -6.2	-0.5	i	-2.7	-2.1	2.2	4.8	0.0	4.1	0.711
40) Cc1ccc2nc(NC(=O)C3CSC4(C)CCC(=O)N34)sc2c1 (centres undefined)
    nt	-0.1	i	-18.4	4.0	1.6	-3.7	-0.4	0.8	0.658

Other structures
Below each compound – Beta apoptosis	Ecoli rRNA inh	FGF22 binding	Ecoli rRNA inh OD600	Ecoli rRNA inh RFP	MLL AF4-AF9 inh	T cruzi repl	Bfl-1 A1 inh	UCH37 DUB inh	E coli growth
41) CC(=O)Nc1ccc(N=Cc2ccc[nH]2)cc1
    nt	nt	nt	nt	nt	nt	6.1	0.9	2.1	0.716
42) Cc1ccc(C(C)C)c(OCCCN2C(=O)NC(C)(C)C2=O)c1
    -5.0	-40.1	nt	-47.6	-7.9	nt	3.0	0.2	1.4	0.656
43) C=CCn1c(SCC(=O)Nc2nc(C)cs2)nnc1C(C)NC(=O)c1ccccc1Cl (centres undefined)
    0.5	nt	nt	nt	nt	nt	0.1	1.7	3.0	0.695
44) Cc1c(Cl)cccc1NC(=O)Cn1c(CCC(=O)O)ccc1-c1ccccc1
    -16.2	1.1	i	4.7	7.3	-8.4	-11.2	1.0	5.0	0.673
45) Cn1ccc(CC(=O)N2CCC(N3CCC(C(=O)N4CCCC4)CC3)CC2)c1
    0.8	3.7	i	1.9	6.0	-10.6	-12.1	0.2	1.9	0.664
46) COc1ccc(C(=O)N2CCN(CCNC(=O)C(=O)Nc3ccc(Br)cc3)CC2)cc1
    -9.1	9.3	i	9.9	-0.4	0.3	15.2	-0.4	1.1	0.707
47) CCCCNC(=O)CCn1nc(-c2ccc(Cl)cc2)ccc1=O
    0.5	-0.3	i	3.7	0.1	-1.1	-3.4	-0.1	1.4	0.583
48) COc1ccc(NC(=S)Nc2ncccc2C)cc1OC
    -2.6	-11.4	i	-15.2	-4.7	2.4	17.7	-0.3	2.4	0.637
49) Oc1ccc2nnc3c(Br)cnn3c2c1
    0.4	6.9	i	-6.1	-2.4	-1.5	-13.2	-0.9	nt	nt
50) COCC(=O)NCCNc1nc2ccc(C)cc2cc1C
    -3.8	nt	nt	nt	nt	nt	0.5	1.6	-41.3	0.636
51) COc1ccccc1N1CCN(C(=O)CSc2nnc(NC(=O)c3ccco3)s2)CC1
    3.5	nt	nt	nt	nt	nt	2.2	0.5	5.8	0.696
52) CC(NCC(=O)NCC(=O)Nc1ccc(F)cc1)c1cccc(C(F)(F)F)c1 (centres undefined)
    2.9	nt	i	nt	nt	1.6	nt	0.1	5.5	0.698

High-throughput results (PubChem BioAssay)
